# VACV mCherry inh – vaccinia inhibition (mCherry reporter) | Vaccinia virus mCherry reporter infection, fluorescence; about a quarter of the inactives have no number | Potency, µM (series often up to 36.5 µM), without a hit: top-dose activity change, negative = inhibition, actives largely listed as inhibitors | actives 0.63% (n = 310,000) | AID 720579; active = well fitted inhibition curve with a large enough effect; inconclusive = small, poorly fitted or top-dose-only effect; inactive = no such curve, though single readings can be large or run the other way; tested in A549 cells; also: nearly all actives have a fitted effect of over 35% in size; inactives centre near -10
# VACV Venus inh – vaccinia inhibition (Venus reporter); Potency, µM (highest dose often 36.5 µM), for inactives: at the highest dose activity change, negative = inhibition, most hits filed as inhibitors; actives 0.46% (n = 330,000); Vaccinia virus Venus reporter expression, fluorescence; AID 720580; active means well fitted inhibition curve with a large enough effect; inconclusive means small, poorly fitted or top-dose-only effect; inactive means no such curve, though single readings can be large or run the other way; tested in A549 cells; also: nearly all actives have a fitted effect of over 30% in size; inactives centre near -10
# An asterisk follows results filed as active; i = inactive; ? = inconclusive; / = no result given; & = joins results of further samples; [ ] = remark or other dose. % is scaled to controls: 0 for no effect and ±100 for the full control effect; potency is read from the fitted curve at half-maximal effect.
# A first look:
# Under each structure: VACV mCherry inh	VACV Venus inh
- C[C@@H]1CN([C@@H](C)CO)C(=O)CCCn2nncc2CO[C@H]1CN(C)C(=O)Nc1ccccc1F
→ -20%	-3%
- CCOc1ccc2c(c1)-c1c(ssc1=S)C(C)(C)N2
→ ?	?
- CCc1nc2ccc(C(=O)N(C)CCCN(C)C)cn2c1N(C=O)CCC(C)C
→ i	4%

# The whole of this part, repeating the preview:
# Under each structure: VACV mCherry inh	VACV Venus inh
- C[C@@H]1CN([C@@H](C)CO)C(=O)CCCn2nncc2CO[C@H]1CN(C)C(=O)Nc1ccccc1F
→ -20%	-3%
- CCOc1ccc2c(c1)-c1c(ssc1=S)C(C)(C)N2
→ ?	?
- CCc1nc2ccc(C(=O)N(C)CCCN(C)C)cn2c1N(C=O)CCC(C)C
→ i	4%
- C=CC[C@H](CC(=O)NCCO)C(=O)NCCOC(=O)[C@@H](CC=C)CC(=O)OC(C)(C)C
→ i	-19%
- COc1ccc2cc(C#N)c(SCC(=O)N3CCCC3)nc2c1
→ -8%	-4%
- Cc1ccccc1NC(=S)N(Cc1ccccc1)Cc1cccnc1
→ -13%	-12%
- CCc1ccc(NC(=O)C(=O)NCCN2CCN(C(=O)c3ccco3)CC2)cc1
→ /	-16%
- CCOc1ccccc1NC(=O)Nc1cnccn1
→ i	-7%
- CCN1C(=O)[C@H]2[C@@H](c3ccc(-c4cc(C(C)=O)cs4)cc3)N3CCC[C@@]3(C(=O)OC)[C@H]2C1=O
→ ?	-14%
- CCCNC(=O)CN1C(=O)NC(CCSC)C1=O (stereo not given)
→ i	-8%
- CCOC(=O)c1[nH]c2ccccc2c1NC(=O)C(CC)CC
→ ?	-14%
- CCOc1ccc2nc(NC(=O)c3nc(SCc4ccccc4F)ncc3Cl)sc2c1
→ 12%	5%
- Cc1nc2sc(C(c3cccc(F)c3)N3CCOCC3)c(O)n2n1 (stereo not given)
→ -9%	-5%
- NC(=O)c1ccsc1NC(=O)COC(=O)/C=C/c1ccccc1
→ -12%	0%
- COc1ccc(OC)c(NC(=O)C(=O)NCc2ccncc2)c1
→ -6%	-20%

# Full records from above.
# CCOc1ccccc1NC(=O)Nc1cnccn1 in the list: VACV mCherry inh: i; VACV Venus inh: -7%
# CCN1C(=O)[C@H]2[C@@H](c3ccc(-c4cc(C(C)=O)cs4)cc3)N3CCC[C@@]3(C(=O)OC)[C@H]2C1=O in the list: VACV mCherry inh: ?; VACV Venus inh: -14%

# Additional results.
# Under each structure: VACV mCherry inh	VACV Venus inh
- COc1ccc(C2=NO[C@@H]3[C@@H]4C[C@@H]([C@H]5C(=O)N(c6ccc7c(c6)OCO7)C(=O)[C@@H]45)[C@H]23)cc1OC
→ 0%	-12%
- CCN(CC)Cc1ccc(OC)c(Cl)c1
→ -15%	-7%
- Cc1ccc(-n2c(SCC(=O)Nc3ccc4cn[nH]c4c3)nnc2-c2ccco2)cc1
→ /	-24%
- COc1ccc(/C=C/C(=O)OCC(=O)c2c(C)[nH]c3ccccc23)cc1OC
→ i	-5%
- Cc1ccc(S(=O)(=O)Nc2cc3c(C(=O)OCc4ccccc4)c(C)oc3c3ccccc23)c(C)c1
→ -5%	0%
- Cn1c(=O)[nH]c(=O)c2c1nc(SCCN1CCCCC1)n2Cc1ccccc1
→ -18%	-11%
- C[C@@H]1CN([C@@H](C)CO)C(=O)CCCn2nncc2CO[C@H]1CN(C)S(=O)(=O)c1ccc(C#N)cc1
→ -20%	-11%
- CC1=C(C#N)C(C)C2=C(CC(C)(C)CC2=O)N1 (stereo not given)
→ -17%	-17%
- COc1cccc(OC)c1C(=O)N1CCN(Cc2ccccc2C(F)(F)F)CC1
→ /	-28%
- CCN(CC1CCCO1)C(=O)CCc1nnc(CCc2ccccc2)o1 (stereo not given)
→ i	1%
- Cc1ccc(S(=O)(=O)c2c(N)n(CCCO)c3nc4ccccc4nc23)cc1
→ /	-25%
- COc1ccc(Cn2nnnc2C(c2cccs2)N2CCN(c3ccc([N+](=O)[O-])cc3)CC2)cc1 (stereo not given)
→ -21%	-15%
- O=C(O)c1cnc(-c2ccccc2)nc1-c1ccccc1
→ -2%	-13%
- CC1CCCN(S(=O)(=O)c2cccc(C(=O)NCc3ccco3)c2)C1 (stereo not given)
→ -17%	-3%
- CC(=O)N1CCN(c2ccc(Oc3ccc([N+](=O)[O-])c(C(F)(F)F)c3)cc2)CC1
→ -16%	-27%
- COc1cc(NC(=O)CN2C(=O)COc3ccc(S(=O)(=O)N4CCCCC4)cc32)cc(OC)c1
→ -29%&-7%	-9%&-11%
- COc1ccc2c(=O)c(OC)c(-c3ccccc3)oc2c1
→ i	0%
- COc1cn(-c2ccccc2)nc1C(=O)Nc1ccc(C)cc1Cl
→ -18%	-4%
- CCOc1ccc(NC(=O)CCNS(=O)(=O)c2ccc(Br)s2)cc1
→ -20%	-13%
- CCN(CC)CCNC(=O)c1ccc(NC(=O)c2cccc(S(=O)(=O)N3CCCCCC3)c2)cc1
→ 7%	?
- Cc1ccc(C(=O)CCC(=O)N2CCN(c3ccccc3O)CC2)cc1
→ ?	-11%
- COc1ccc(CCC(=O)OCc2csc(CC(=O)Nc3ccccc3C)n2)cc1
→ -13%	-5%
- COc1ccccc1-c1nc(NCCNC(C)=O)c2ccccc2n1
→ i	0%
- Cc1cccn2c(CNCC(C)Oc3cccnc3)c(C(=O)N3CCOCC3)nc12 (stereo not given)
→ -7%[7.34 µM]	-3%[7.34 µM]
- O=C(CNCc1ccc(Cl)cc1)Nc1cc(S(=O)(=O)N2CCCC2)ccc1Cl
→ -7%	-8%
- CC(=O)c1cccc(S(=O)(=O)N2CCC(C(=O)O)CC2)c1
→ i	-8%
- Cn1nnnc1SCc1ccc(C(=O)Nc2ccccc2F)cc1
→ i	-13%
- O=c1[nH]nc(SCCS(=O)(=O)c2ccc(F)cc2)n1-c1ccccc1C(F)(F)F
→ ?	3.2µM*
- Cc1ccc(SC[C@H](C)CN2CC[C@H](NC(=O)OCc3ccccc3)CCC2=O)cc1
→ i	-14%&-16%
- COc1ccc(CN2CCN(c3ncnc4scc(-c5ccc(F)cc5)c34)CC2)cc1
→ -15%	-17%
- COc1ccc(NC(=O)CCSc2nnnn2C)cc1
→ 0%	-4%
- Cc1[nH]n(-c2ccccc2)c(=O)c1N=O
→ -2%	-6%
- Cn1c(NCc2cccnc2)nc2cc(-c3cccc(C(=O)NCCO)c3)sc2c1=O
→ 6%	-4%
- O=C1COc2ccc(C(=O)CSc3nnnn3-c3ccccc3)cc2N1
→ -16%	-4%
- Cc1nn(C)c(C)c1NC(=O)c1ccc(S(=O)(=O)N(C)C)cc1
→ i	0%
- O=C(CN1C(=O)NC2(CCCC2)C1=O)OCCOc1ccccc1Cl
→ -12%	-12%
- CCOC(=O)c1nc(Nc2ccc(C(=O)O)cc2)c2ccccc2n1
→ /	12%
- Cc1ccc(CNc2ccc(N3C(=O)CC(C)C3=O)cc2[N+](=O)[O-])cc1 (stereo not given)
→ -4%	0%
- COc1ccc(N2CCN(CC(=O)c3c(C)n(C)c4ccc(OC)cc34)CC2)cc1
→ i	-3%
- O=C(NC1=NCCS1)c1ccc(-c2ccc(Cl)cc2)o1
→ -13%	-28%
- O=C(Nc1ccc(F)cc1)NC1(C(=O)NCc2cccs2)CCCCC1
→ -4%	1%
- N=C1C(c2ccccc2)=C(O)CN1c1cccc(S(=O)(=O)Nc2cccc(C(F)(F)F)c2)c1
→ i	-6%
- C#CC1(O)CCC2C3CCc4cc(O)cc(C)c4C3CCC21C (stereo not given)
→ -10%	-20%
- COCC(=O)n1nc(-c2ccccc2)nc1NCc1ccccc1
→ i	-10%
- CCc1ccc2c(c1)c1nc(C)sc1n2CC(=O)OC
→ i	-3%
- Cc1nc2ccccc2c(=O)n1/N=C/c1ccccc1
→ -3%	-18%
- COC(=O)c1cccc(NC(=O)c2cnccn2)c1
→ -1%	-2%
- COc1cccc(-c2nn(C)c3sc(C(=O)NCc4cc(OC)ccc4OC)cc23)c1
→ -27%	-19%
- O=C(COc1ccc(Cl)cc1Cl)Nc1ccc(Cl)cn1
→ i	-5%
- COc1cc(CCC(O)CC(=O)CCc2ccccc2)ccc1O (stereo not given)
→ 6%	4%
- N/C(=N\OC(=O)COc1ccc(Br)cc1)c1ccncc1
→ i	-14%
- Cc1ccc(OCc2cnc(Cl)s2)c(C)c1
→ i	-3%
- COc1ccccc1CN1C(=O)C(Cc2ccccc2)ON=C1c1ncccc1C (stereo not given)
→ 11%	-2%
- O=[N+]([O-])c1ccc(N=Cc2sc3ccccc3c2O)cc1
→ -17%	-18%
- COC(=O)[C@]12CCCCC=C1N(Cc1cccc3ccccc13)C(=O)[C@H](CC(=O)NCCc1ccccc1OC)C2
→ -2%	-6%
- COc1ccc(-n2c(=O)c(CCC(=O)N(C)Cc3cccs3)nc3ccccc32)cc1
→ -5%	-22%
- O=C(COC(=O)CNC(=O)C1CCCCC1)Nc1cccc(F)c1
→ i	-8%
- COc1ccc(C=Nc2cccnc2N)cc1
→ -14%	0%
- O=C1N=C(N2CCCCC2)S/C1=C\c1cn[nH]c1-c1ccccc1
→ i	-4%
- CCCN1C(=O)/C(=C/c2ccccc2OCc2ccc(C(=O)O)cc2)NC1=S
→ -4%	-3%

# (cont.)
SMILES	VACV mCherry inh	VACV Venus inh
Cc1ccc(C(=O)c2oc3ccccc3c2NC(=O)c2cc(=O)c3ccccc3o2)cc1	-20%	-13%
Cc1ccc(C(=O)CC(=O)COc2ccc(Cl)cc2)cc1	i	-6%
C/C(=N\Nc1cc(Cl)nc(C)n1)c1ccc(C)cc1	-24%	-10%
CCN1CCN(c2ncnc3c2cnn3-c2ccc(Cl)cc2)CC1	0%	-15%
COc1ccccc1NC(=O)CCN1CCN(Cc2ccccc2)CC1	i	-18%
Cc1ccc(NC(=O)COc2ccc(Br)cn2)cc1	i	-15%
CCOc1ccc(N2C(=O)c3ccccc3C2=O)cc1	i	-2%
NC(=O)C1=C(N=C2CCCCC2)CCCC1	i	-4%
CC(=O)c1sc(NS(=O)(=O)c2ccc(C)cc2)nc1C	-12%	-12%
COc1ccc(N(C(=O)c2cccnc2)S(=O)(=O)c2ccc(F)cc2)cc1	-12%	-6%
COc1ccc(S(=O)(=O)N(CC(=O)N2CCCCCC2)c2ccccc2OC)cc1	-18%	0%
CCOc1cc(C(=O)CCC(=O)OCC(=O)Nc2ccc(F)cc2)ccc1O	-2%	-4%
Cc1ccn2cc(CCNS(=O)(=O)c3ccc(F)c(C(F)(F)F)c3)nc2c1	i	2%
CCOC(=O)c1ccc(NC(=O)C2=C(C)C(=O)OC23CCN(C(C)C)CC3)cc1	-7%	-7%
CCc1ncc(CN2CCC(C(=O)Nc3cccc(-c4cscn4)c3)CC2)cn1	-19%	-30%
COc1cc(C(=O)N(Cc2ccc(F)cc2)Cc2ccco2)cc(OC)c1OC	-1%	2%
O=C(Nc1nc(-c2ccccc2)cs1)c1ccccc1F	-13%	-12%
C[C@H]1CN([C@@H](C)CO)C(=O)CCCn2nncc2CO[C@@H]1CN(C)Cc1ccc2c(c1)OCCO2	i	-8%
CC1(C(=O)NS(=O)(=O)C2CC2)CCCN(C(=O)c2ccc(C(F)(F)F)cc2)C1 (stereo not given)	-1%	-1%
O=C(NC(=S)NCCCN1CCOCC1)c1ccco1	-14%	-4%
COc1c(C)cc(C(O)c2ncc(-c3ccc(Cl)cc3)[nH]2)cc1C (stereo not given)	11%	-16%
CCOC(=O)C(O)(CCC(O)(C(=O)OCC)C(=O)OCC)C(=O)OCC	-4%	-1%
c1ccc(OCCn2c(-c3ccco3)nc3ccccc32)cc1	-5%	-4%
COc1ccc(/C=C(\C#N)C(=O)NCc2ccccc2)cc1	-16%	-12%
CC(N)C(=O)NC(C(=O)N1CCCC1C(=O)NC(c1ccccc1)c1ccccc1)C(C)C (stereo not given)	-21%	-4%
CCOC(=O)C1=C(C(F)(F)F)Nc2ncnn2C1c1ccc(OC)cc1OC (stereo not given)	-11%	-7%
CC(C)(C)N(Cc1ccccc1)C(=O)COC(=O)CCc1c[nH]c2ccccc12	-11%	-6%
CCN(CC)C(=S)Nc1cc(C(=O)OC)ccc1C(=O)OC	-18%	-16%
O=C(Nc1ncccc1O)c1ccc2c(c1)OCCO2	?	-19%
COc1ccc(NC(=S)N(Cc2ccc(C)cc2)Cc2ccccn2)cc1	i	-6%
Cc1cc2ccccn2c1C(=O)c1cccc(S(=O)(=O)N2CCOCC2)c1	-3%	-20%
Cc1ccc(N(Cc2cc3ccc(C)cc3[nH]c2=O)S(=O)(=O)c2ccccc2)c(C)c1	-10%	-11%
COc1ccc(C2Nc3ccccc3C(=O)N2NS(C)(=O)=O)cc1OC (stereo not given)	i	-13%
O=C(COC(=O)Cc1ccccc1F)Nc1ccc(Cl)cn1	5%	6%
Cc1noc(C)c1C(=O)Nc1cc(S(=O)(=O)N2CCCCC2)ccc1N(C)C	i	-14%
CCOc1cccc2cc(C(=O)NCc3cccnc3)c(=O)oc12	i	-10%
Cc1ccc(NC(=O)C2CCCN(C(=O)Nc3ccc(F)cc3)C2)cc1 (stereo not given)	i	-20%
CCOc1cc2c(cc1OCC)-n1cccc1C(c1ccc(C(C)C)cc1)NC2 (stereo not given)	?	-12%
CC1CN(c2ccc(Oc3ccccc3)cc2)c2nc3c(c(=O)n(CC(N)=O)c(=O)n3C)n2C1 (stereo not given)	-25%	-25%
COc1ccc(Cl)cc1NC(=O)CSC1=NN2CCCC(=O)N=C2S1	?	17%
O=[N+]([O-])c1ccc(C2=Nn3c(Cn4nnc5ccccc54)nnc3SC2)cc1	-2%[7.34 µM]	-3%[7.34 µM]
Cc1cc(C)cc(N2C(=O)CSC2c2ccccn2)c1 (stereo not given)	5%	0%

# High-throughput results: PubChem, National Center for Advancing Translational Sciences (NCATS)
